TRPV1 potentiator = potentiators of human vanilloid receptor 1 (TRPV1) | AID 540277 | Q8NER1 | TRPV1-expressing cells, Fluo-8 calcium influx, capsaicin EC20 potentiation; host cell line not named in the record; control for the full effect not named in the record | actives 0.02% (n = 320,000) | potentiation, % at 8.33 µM; active means potentiation above 80%; inconclusive means 30% to 80%; inactive means below 30%; further: 0% is about no effect
Target sequence (Q8NER1 whole entry, looked up): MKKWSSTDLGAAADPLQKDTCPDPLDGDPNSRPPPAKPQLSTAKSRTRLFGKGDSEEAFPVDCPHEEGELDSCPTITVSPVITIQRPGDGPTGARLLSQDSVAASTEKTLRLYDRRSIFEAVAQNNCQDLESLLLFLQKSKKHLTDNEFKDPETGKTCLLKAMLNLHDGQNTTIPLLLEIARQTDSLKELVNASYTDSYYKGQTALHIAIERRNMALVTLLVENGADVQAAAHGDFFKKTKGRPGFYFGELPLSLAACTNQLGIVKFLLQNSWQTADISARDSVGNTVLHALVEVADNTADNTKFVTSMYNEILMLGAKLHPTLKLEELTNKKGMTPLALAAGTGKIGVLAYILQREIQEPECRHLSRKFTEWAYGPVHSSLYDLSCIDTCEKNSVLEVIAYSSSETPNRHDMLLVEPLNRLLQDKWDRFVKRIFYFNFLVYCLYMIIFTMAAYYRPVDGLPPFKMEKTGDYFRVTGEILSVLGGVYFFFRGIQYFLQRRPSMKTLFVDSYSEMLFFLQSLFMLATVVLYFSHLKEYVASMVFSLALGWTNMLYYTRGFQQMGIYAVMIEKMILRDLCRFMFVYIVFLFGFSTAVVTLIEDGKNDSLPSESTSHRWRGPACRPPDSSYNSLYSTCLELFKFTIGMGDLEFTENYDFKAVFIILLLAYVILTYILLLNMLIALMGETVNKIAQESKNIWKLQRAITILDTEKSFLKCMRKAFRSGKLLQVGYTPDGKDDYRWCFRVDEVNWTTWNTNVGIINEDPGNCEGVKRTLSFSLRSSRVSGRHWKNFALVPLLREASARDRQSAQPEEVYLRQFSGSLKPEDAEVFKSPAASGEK
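Cells expressing TRPV1 were dye-loaded with Fluo-8 and read kinetically: 10 s baseline, 3 min after compound (agonist portion), then 2 min after EC20 capsaicin (allosteric enhancer portion). Calcium-bound dye fluorescence at 480/520 nm.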
gsp antagonist = antagonizes gsp, the McCune-Albright syndrome mutation; gsp-mutant cells, cAMP HTRF, 30 min; control for the full effect not named in the record; Potency, µM (top dose mostly 76.9 µM), for inactives: top-dose activity change, negative = inhibition, usual class: inhibitors; actives 0.4% (n = 340,000); AID 624288; active = falling curve of any shape with a large fitted effect; inconclusive = falling curve, mostly with a smaller effect; inactive = flat or rising curve; cell line not stated here;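 further: intracellular cAMP measured with PDE inhibitor Ro 20-1724 present during compound exposure; potency means the concentration at half of the fitted maximal effect; on the % scale 0 is the no-effect control and ±100 the full control effect; nearly all actives have a fitted effect of over 65% in size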
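Cells, 2000/well, grown 16–24 h in DMEM 10% FBS with 0.5 mg/ml G418, then compounds plus […] (300 uM addition stock), 30 min at 37C. cAMP read by HTRF (cAMP-d2 and anti-cAMP antibody-K in lysis buffer) after 30 min RT.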
gsp ag = gsp mutant agonism; gsp mutant cells, cAMP HTRF, 30 min; control for the full effect not named in the record; Potency, µM (doses to about 76.9 µM), for inactives: at the top dose activation (cAMP increase), most hits filed as activators; actives 0.13% (n = 340,000); AID 624287; active = well fitted activation curve with a large enough effect; inconclusive = small, poorly fitted or top-dose-only effect, or another doubt; inactive = no such curve, though single readings can be large or run the other way; cell line not stated here;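 further: phosphodiesterase inhibitor Ro 20-1724 added with compounds to block cAMP breakdown; potency means the concentration at half of the fitted maximal effect; nearly all actives have a fitted effect of over 60% in size; about a fifth of the inactives were tested at one dose only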
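Cells in DMEM/10% FBS with G418 were pretreated with compounds in DMSO plus […] (300 uM stock) for 30 min at 37C. cAMP was measured by HTRF (cAMP-d2 plus anti-cAMP antibody-K) after 30 min at room temperature.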
ClpP mod = qHTS Assay for Activators of ClpP | ATP-dependent Clp protease proteolytic subunit (Bacillus subtilis (strain 168)), P80244 | purified B. subtilis ClpP, FRET peptide cleavage, 20 min | Potency, µM (titrated, usually from 57.5 µM), for the others: at the top dose activity change, negative = active | actives 1.9% (n = 340,000) | AID 651965, 2013; active = well fitted falling curve with a large enough effect; inconclusive = small, poorly fitted or top-dose-only effect; inactive = no such curve, though single readings can be large or run the other way; further: potency means the concentration at half of the fitted maximal effect; the source files actives as falling curves though it sought activators and does not explain the sign; nearly all actives have a fitted effect of over 65% in size; many hits overshoot -100%
Target sequence (P80244 whole entry, looked up): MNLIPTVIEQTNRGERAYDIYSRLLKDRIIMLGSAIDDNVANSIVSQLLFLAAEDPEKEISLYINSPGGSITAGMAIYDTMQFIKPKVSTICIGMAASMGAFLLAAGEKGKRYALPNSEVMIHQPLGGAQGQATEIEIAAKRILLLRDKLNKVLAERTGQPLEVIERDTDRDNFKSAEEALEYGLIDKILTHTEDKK
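ClpP 10 microg/mL final, pH 8 Tris/KCl buffer with BSA, glycerol, Tween-20; compound pinned in; FRET-FV substrate; RT 20 min; Ex320/Em430; ΔFRET vs ADEP 5.8 microM, DMSO, no enzyme.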
CtBP-E1A inh = blocks the CtBP interaction with E1A. AlphaScreen GST-E1A/His-CtBP binding, 1536-well; stronger effect = lower value; control for the full effect not named in the record. activity change, % (no concentration beside the values). actives 0.49% (n = 340,000); in the data active means activity change below about -65%; inconclusive means about -30% to -65%; inactive means above about -30%; further: on the % scale 0 is the no-effect control and ±100 the full control effect; compound concentration not given in the record
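GST-E1A and His-tagged CtBP (125 nM each as 5X stock) were preincubated with pin-transferred compound for 2 h at 37 °C in the dark, then glutathione donor and nickel acceptor beads were added for 1 h before AlphaScreen reading.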
Sfp PPTase inh = inhibitors of Bacillus subtilis Sfp phosphopantetheinyl transferase | Q9F4F7 | Potency, µM, for inactives: max response, negative = inhibition, actives largely listed as inhibitors | AID 1490 | actives 3.5% (n = 310,000) | Biochemical Sfp PPTase activity, qHTS; active means well fitted inhibition curve with a large enough effect; inconclusive means small, poorly fitted or top-dose-only effect, or another doubt; inactive means no such curve, though single readings can be large or run the other way;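 further: the enzyme is Sfp with the accession as filed and its product quenches rhodamine fluorescence; potency means the concentration at half of the fitted maximal effect; 0% = enzyme reaction without inhibitor and -100% = no enzyme wells; top concentration of the series not given in the record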
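Step 1, compound plus 15 nM Sfp-PPTase, 15 min, room temperature. Step 2, add rhodamine-CoA (5 uM) and BHQ-2-YbbR (12.5 uM). Step 3, read 525/598 nm fluorescence at 0 and 30 min.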
Menin-MLL FL inh = inhibitors of human menin-MLL interaction, wild-type MLL peptide. Fluorescence polarization, fluorescein-MLL peptide displacement from menin. FP activity change, % at 61.4 µM. 290,000 tested, under 10 active. AID 1766; inconclusive = falling polarisation curve, or a change in total fluorescence; inactive = total fluorescence flat and polarisation flat or rising; no compound was filed as active; the % refers to the polarisation; negative = inhibition;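 further: % of control where 0% means no effect; inhibitors lower the polarisation; unlabelled MLL peptide was the positive control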
The depositor's hits bear a star; ? = inconclusive; / = not tested or not shown; & = joins results of further samples; [ ] = dose if it differs, or a comment.

Compound | TRPV1 potentiator | gsp antagonist | gsp ag | ClpP mod | CtBP-E1A inh | Sfp PPTase inh | Menin-MLL FL inh
COc1ccc(N2CCN(C(=O)c3ccc(NS(=O)(=O)c4ccccc4)cc3)CC2)cc1 | -5 | -18% | 1% | -0.3% | -11 | 3% | 1.6
N#Cc1c(N(CCO)CCO)nc(N)c2c(N)nc3c(c12)CC(=O)N3CC1CCCO1 (stereo not given) | 1 | 1% | 17% | 4.0% | / | ? | 2.1
CCOC(=O)C1=C(CSc2nc(C)cc(C)c2C#N)OC(N)=C(C#N)C1c1ccccc1 (stereo not given) | 6 | 1% | 9% | 19% | -11 | -39% | 15
CCc1cc(C(=O)N2CCOCC2)c(NC2=NS(=O)(=O)c3ccccc32)s1 | 2 | -7% | 2% | -1.1% | 2 | -26% | 11
CCCC1=C(C(=O)OCC)C(/C=C/c2ccccc2)n2ncnc2N1 (stereo not given) | -2 | 12% | 9% | 0.0% | 0 | 5% | 3.1
COc1ccccc1CN1CCNC(=O)C1CC(=O)O (stereo not given) | -1 | 1% | -1% | / | -9 | -9% | -1.4
CC(C)(C)c1ccc(S(=O)(=O)NNC(=O)c2cc3ccccc3[nH]2)cc1 | 3 | 5% | 1%[15.4 µM] | -0.8% | 4 | 3% | 3.2
Cc1ccc(C2C(C#N)=C(N)OC3=C2C(=O)CC(C)(C)C3)s1 (stereo not given) | 0 | 3% | -36%[inhibitor] | -3.0% | -4 | 2% | 5.2
CC(=O)N1CCN(c2nc(N)c(C#N)c(CC#N)c2C#N)CC1 | / | 4% | ? | -14% | -23 | 1% | 5.1
Cc1cc(NCc2ccco2)n2ncnc2n1 | ? | 4% | 16% | -1.0% | -3 | 23% | -0.9
O=C(COC(=O)Cc1c(Cl)cccc1Cl)NCC1CCCO1 (stereo not given) | -17 | -4% | 2%[15.4 µM] | 25µM* | -7 | 18% | -3.3
CCOC(=O)c1noc(C)c1C(=O)Nc1nc(C)cc(C)n1 | 15 | 5% | -35% | / | 6 | 13% | -0.4

Of the compounds above, these have a thiophene ring, fused or not:
Compound | TRPV1 potentiator | gsp antagonist | gsp ag | ClpP mod | CtBP-E1A inh | Sfp PPTase inh | Menin-MLL FL inh
CCc1cc(C(=O)N2CCOCC2)c(NC2=NS(=O)(=O)c3ccccc32)s1 | 2 | -7% | 2% | -1.1% | 2 | -26% | 11
Cc1ccc(C2C(C#N)=C(N)OC3=C2C(=O)CC(C)(C)C3)s1 (stereo not given) | 0 | 3% | -36%[inhibitor] | -3.0% | -4 | 2% | 5.2

Returning to the listing; the five compounds before the break are reprinted first.
Compound | TRPV1 potentiator | gsp antagonist | gsp ag | ClpP mod | CtBP-E1A inh | Sfp PPTase inh | Menin-MLL FL inh
Cc1ccc(C2C(C#N)=C(N)OC3=C2C(=O)CC(C)(C)C3)s1 (stereo not given) | 0 | 3% | -36%[inhibitor] | -3.0% | -4 | 2% | 5.2
CC(=O)N1CCN(c2nc(N)c(C#N)c(CC#N)c2C#N)CC1 | / | 4% | ? | -14% | -23 | 1% | 5.1
Cc1cc(NCc2ccco2)n2ncnc2n1 | ? | 4% | 16% | -1.0% | -3 | 23% | -0.9
O=C(COC(=O)Cc1c(Cl)cccc1Cl)NCC1CCCO1 (stereo not given) | -17 | -4% | 2%[15.4 µM] | 25µM* | -7 | 18% | -3.3
CCOC(=O)c1noc(C)c1C(=O)Nc1nc(C)cc(C)n1 | 15 | 5% | -35% | / | 6 | 13% | -0.4
O=c1c(Cc2c(F)cccc2Cl)c(O)ccn1C1CC1 | -3 | 0% | -21% | -0.2% | -3 | 11% | 4.7
Cc1cc(C)cc(NC(=O)CSc2nnc(-c3ccncc3)o2)c1 | -4 | 2% | 4%[15.4 µM] | / | 4 | / | /
CCNC(=O)N(C)C[C@H]1N[C@@](CC)(C(=O)OC)[C@H]2C(=O)N(C)C(=O)[C@@H]12 | / | 11% | / | 0.2% | 7 | / | /
CC(=O)OCC=C1CCC2C3CCC4=CC(=O)CCC4(C)C3C(O)CC12C (stereo not given) | / | 1% | 3% | / | -18 | / | /
O=C(COC(=O)/C=C/c1ccc([N+](=O)[O-])cc1)NCc1cccs1 | / | 0% | 24% | -0.6% | -26 | / | /
COC(=O)c1cccc(N2CCCC2=O)c1 | 14 | 9% | 16% | -2.9% | / | -6% | -4.0
CCOC(=O)N1CCN(C(=O)CN(Cc2ccccc2)S(C)(=O)=O)CC1 | 20 | 4% | 26% | 0.3% | 0 | 10% | 4.1
CN(C)S(=O)(=O)c1ccc(N2CCCC2)c(C(=O)N2CCN(S(=O)(=O)c3ccccc3F)CC2)c1 | -12 | -12% | -12%[15.4 µM] | / | 3 | / | /
CN(CCC#N)C(=O)COC(=O)c1ccccc1OCc1ccccc1Cl | -3 | 3% | -12% | / | 3 | 7% | 1.7
Cc1cc(C(=O)OCC(=O)NC2CCCCC2C)c2ccccc2n1 (stereo not given) | / | -1% | 0% | -6.9% | 1 | / | /
COc1ccc(-c2cn3c(n2)CCC3)cc1 | 4 | -8% | 3% | -8.4% | -1 | 3% | -1.8
COc1cc(OC)cc(C(=O)NCc2n[nH]c(=S)n2-c2ccccc2)c1 | / | -1% | -30% | 1.8% | 0 | 89µM* | 5.1

Further results follow:
Compound | TRPV1 potentiator | gsp antagonist | gsp ag | ClpP mod | CtBP-E1A inh | Sfp PPTase inh | Menin-MLL FL inh
CC(=O)NCCC(=O)Nc1cc(F)ccc1C | 6 | -1% | -57%[inhibitor] | ? | 10 | 3% | 1.3
CC(=O)OC1COC(N2CCc3ccccc32)C(OC(C)=O)C1OC(C)=O (stereo not given) | 2 | 6% | -7%[15.4 µM] | -1.1% | 0 | 6% | 6.9
O=C(C1=C[C@@H](C2CC2)C[C@@H](OCc2ccc(CO)cc2)O1)N1CCN(Cc2ccccc2)CC1 | -6 | -4% | / | -3.6% | -16 | -2% | -3.2
CC(C)CCN1CC(C(=O)NCc2ccc(F)cc2)CC1=O (stereo not given) | -15 | -1% | 10% | 0.5% | 8 | 6% | 3.8
CCOc1ccc(N(CC(=O)Nc2ccccc2Cl)S(C)(=O)=O)cc1 | -1 | 5% | -30%[inhibitor] | 1.7% | / | 21% | 3.7
CCc1c(C)nc(SCC(=O)N2C(C)CCCC2C)[nH]c1=O (stereo not given) | 4 | 2% | -18%[15.4 µM] | / | 8 | 0% | 1.0
CC(Cc1cnccn1)NC(=O)c1cc(COc2ccc(F)cc2F)on1 (stereo not given) | -7 | 26% | -10% | 0.3% | 7 | 12% | -1.6
Cc1cc(NC(=O)c2cccs2)ncc1NC(=O)C(C)(C)C | 9 | 8% | -32%[inhibitor] | / | -2 | 15% | 0.7
O=C(O)CCC(=O)N1CCC(n2nnc3cc(C(F)(F)F)ccc32)CC1 | -2 | 6% | 1%[15.4 µM] | / | 7 | 10% | 1.1
CCOC(=O)c1ccc(NC(=O)c2ccc(NC(=O)c3ccccc3)cc2)cc1 | 5 | 7% | -28% | -11% | 7 | 4% | 0.2
O=C(CCCC(=O)OCC(=O)c1cccs1)Nc1ccc(F)cc1 | -6 | -2% | -7% | -1.1% | 15 | 0% | 4.9
CCN(CC)CCn1c2c(c(SCC(=O)Nc3cc(C)cc(C)c3)nc1=O)CCC2 | -1 | -4% | 27%[15.4 µM] | / | 9 | / | /

The results go on:
Compound | TRPV1 potentiator | gsp antagonist | gsp ag | ClpP mod | CtBP-E1A inh | Sfp PPTase inh | Menin-MLL FL inh
Cc1cc(=O)nc2c3ccccc3n(CC(=O)NC3CCCCC3)n12 | 7 | -1% | 15% | -14% | / | 9% | 2.0
O=C1NN(c2ccccc2)C(=O)/C1=C\c1cccn1-c1ccc(Cl)c([N+](=O)[O-])c1 | 5 | -25% | -23% | -2.3% | -1 | 4% | -1.2
Cc1cc(=O)[nH]c(S/C=C/c2ccccc2)n1 | -16 | ? | 15% | -0.3% | -6 | -2% | 0.5
CC(=O)Nc1ccc(S(=O)(=O)N2CCSC2c2ccc(Cl)cc2)cc1 (stereo not given) | -1 | ? | 5% | -0.4% | 1 | 0% | 1.1
Cc1cc(Cl)ccc1OCC(=O)NNC(=O)C1CCN(c2ncnc3sc(C)c(C)c23)CC1 | -6 | 35µM* | 17% | -5.4% | / | / | /
O=C(Cc1ccccc1)NC(=S)Nc1ccc(N2CCCCC2)cc1 | 10 | -5% | 3% | ? | ? | 10% | 0.0
CCCNC(=O)C(CC)NS(=O)(=O)c1ccc(OC)cc1 (stereo not given) | -1 | -3% | -39%[inhibitor] | 12% | -3 | 11% | 0.6
CCCN1C(=O)/C(=C/c2ccc(C)o2)SC1=Nc1ccc(OCC)cc1 | 0 | -14% | 13% | 2.0% | -2 | 7.9µM* | 14
COc1cc(/C=C2/C(=N)N3N=C(CC(=O)N4CCOCC4)SC3=NC2=O)ccc1OCc1ccccc1 | -1 | 4% | -15% | 1.7% | / | 2% | /
Cc1cc(C)cc(N=Cc2c(O)c3ccccc3oc2=O)c1 | -8 | -8% | 12%[15.4 µM] | -2.3% | -2 | 19% | -3.1
O=C(COC(=O)c1cc(S(=O)(=O)N2CCOCC2)ccc1Cl)Nc1ccc(Cl)cn1 | / | / | 11% | -0.7% | 4 | / | /
CC(=O)NCCOC(=O)c1nn(Cc2ccccc2)c(=O)c2ccccc12 | -9 | 10% | -2%[15.4 µM] | / | -6 | 4% | -1.1
CCCCCCCCN1[C@@H](CC(=O)OCC)c2cc(F)ccc2S1(=O)=O | / | -1% | / | -2.6%&-0.4% | -8 | / | /
Cc1cc(-c2cccc([N+](=O)[O-])c2)nc2ccc3ccccc3c12 | 5 | 38%[activator] | 25% | -2.4% | -12 | 12% | -0.2
CC(=O)c1cc(CC=C(C)C)c(O)cc1O | 6 | -1% | 5% | 1.9% | 9 | 12% | 5.1

Not a hit list. Share with any hit: about 5.3%.
